# TRPML1 ag – agonists of human TRPML1 channel; activation, % (no concentration beside the values); 410,000 tested, 0.12% active; TRPML1-expressing cells, Ca2+ dye fluorescence, FDSS; host cell line not named in the record; reference of the full effect not given here; AID 624414; in the data active = activation above about 50%; inconclusive = about 30% to 50%; inactive = below about 30%; further: 0% is about no effect; the text of the record puts the active cut at 80%
#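 In this qHTS format, compounds were pin-transferred onto Ca8-dye-loaded TRPML1-DL cells induced with Tet overnight, and intracellular Ca2+ fluorescence was recorded kinetically for 110 s after a 10 s baseline. A subsequent 4uM final 54-4 (EC80) addition followed by a second 110 s read served as the antagonist phase.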
# TRPV1 potentiator – human TRPV1 potentiation; potentiation, % at 8.33 µM; AID 540277; Q8NER1; TRPV1-expressing cells, Fluo-8 calcium influx, capsaicin EC20 potentiation; host cell line not named in the record; control for the full effect not named in the record; 320,000 tested, 0.02% active; active means potentiation above 80%; inconclusive means 30% to 80%; inactive means below 30%; further: 0% is about no effect
# Target sequence (Q8NER1 whole entry, looked up): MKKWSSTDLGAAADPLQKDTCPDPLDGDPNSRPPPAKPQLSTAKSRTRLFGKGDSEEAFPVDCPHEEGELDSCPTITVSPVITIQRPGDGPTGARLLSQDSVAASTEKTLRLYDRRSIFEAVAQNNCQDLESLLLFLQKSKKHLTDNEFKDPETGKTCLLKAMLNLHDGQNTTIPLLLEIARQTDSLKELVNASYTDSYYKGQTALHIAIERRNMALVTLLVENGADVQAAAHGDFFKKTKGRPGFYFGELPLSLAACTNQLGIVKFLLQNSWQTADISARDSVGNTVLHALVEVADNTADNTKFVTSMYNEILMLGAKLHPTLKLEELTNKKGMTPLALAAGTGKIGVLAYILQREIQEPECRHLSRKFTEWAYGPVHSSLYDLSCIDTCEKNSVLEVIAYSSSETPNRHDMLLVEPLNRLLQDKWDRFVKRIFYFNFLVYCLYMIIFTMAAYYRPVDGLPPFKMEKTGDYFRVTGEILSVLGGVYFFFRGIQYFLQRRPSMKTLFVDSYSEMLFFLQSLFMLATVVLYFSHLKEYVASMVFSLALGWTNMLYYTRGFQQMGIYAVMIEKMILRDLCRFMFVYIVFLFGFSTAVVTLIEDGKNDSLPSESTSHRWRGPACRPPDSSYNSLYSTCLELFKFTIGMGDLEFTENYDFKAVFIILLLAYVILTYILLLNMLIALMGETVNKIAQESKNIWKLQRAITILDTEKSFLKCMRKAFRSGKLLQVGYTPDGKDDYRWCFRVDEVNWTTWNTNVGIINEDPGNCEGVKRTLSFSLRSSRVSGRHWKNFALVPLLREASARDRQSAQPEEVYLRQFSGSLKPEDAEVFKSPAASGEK
#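 Fluo-8 calcium influx in TRPV1-expressing cells, kinetic read (ex 480/em 520 nm). Compound added and read 3 min for agonist activity, followed by capsaicin at EC20 final and 2 min further read for enhancement.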
# PINK1 expr mod – changes PINK1 expression | PINK1 immunofluorescence, high-content cytometry, 24 h | Potency, µM (doses to about 76.6 µM), without a hit: at the highest dose activation (PINK1 increase), most hits filed as activators | 410,000 tested, 0.2% active; active = well fitted activation curve with a large enough effect; inconclusive = small, poorly fitted or top-dose-only effect; inactive = flat fitted curve, though single readings scatter; cell line not stated here;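 further: potency means the concentration at half of the fitted maximal effect; % of control where 0% means no effect; nearly all actives have a fitted effect of over 65% in size; a mitochondrial uncoupler was the plate control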
#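 Readout is PINK1 immunofluorescence, quantified alongside mitochondrial, cell and nuclear markers by laser-scanning microplate cytometry. Cells from a stable line were exposed to compound titrations (5 concentrations) for 24 hours, with CCCP controls.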
# ClpP mod – qHTS Assay for Activators of ClpP. ATP-dependent Clp protease proteolytic subunit (Bacillus subtilis (strain 168)), P80244. purified B. subtilis ClpP, FRET peptide cleavage, 20 min. Potency, µM (doses to about 57.5 µM), for inactives: at the highest dose activity change, negative = active. 340,000 tested, 1.9% active; active = well fitted falling curve with a large enough effect; inconclusive = small, poorly fitted or top-dose-only effect; inactive = no such curve, though single readings can be large or run the other way; further: potency means the concentration at half of the fitted maximal effect; the source files actives as falling curves though it sought activators and does not explain the sign; nearly all actives have a fitted effect of over 65% in size; many hits overshoot -100%
# Target sequence (P80244 whole entry, looked up): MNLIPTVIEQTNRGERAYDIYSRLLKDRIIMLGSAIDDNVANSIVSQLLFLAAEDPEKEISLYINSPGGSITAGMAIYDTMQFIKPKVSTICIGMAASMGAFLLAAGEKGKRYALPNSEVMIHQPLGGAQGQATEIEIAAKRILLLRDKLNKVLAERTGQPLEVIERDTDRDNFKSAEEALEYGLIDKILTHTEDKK
#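 Purified B. subtilis ClpP, 10 microg/mL final in Tris/HCl pH8 with KCl, BSA, glycerol and Tween-20, cleaved an Abz/nitrotyrosine-quenched decapeptide. Fluorescence (ex 320, em 430) was read at 0 and 20 min at room temperature. Delta was normalized to 5.8 microM ADEP and DMSO/no-enzyme controls.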
# TRPML1 blocker – blocks the human TRPML1 channel | Q9GZU1 | TRPML1-inducible cells, Ca2+ dye fluorescence, FDSS; hits give low values; inhibition of EC80 agonist-evoked calcium signal | activity change, negative = inhibition, % (concentration not given with the values) | 390,000 tested, 0.02% active | AID 624415; in the data active means activity change below about -50%; inconclusive means about -30% to -50%; inactive means above about -30%;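 further: stimulus is agonist 54-4 at its EC80 concentration; on the % scale 0 is the no-effect control and ±100 the full control effect; compound concentration not given in the record; the text of the record puts the active cut at -80%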
#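 TRPML1-DL cells, Tet-induced overnight (~16 h, 37 °C) at 1,500 cells/well, were loaded with Ca8 no-wash dye plus quencher for 45-90 min at room temperature. Compounds were pinned during FDSS kinetic reading; agonist 54-4 at EC80 (4 uM final) then added.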
# Sfp PPTase inh – Sfp phosphopantetheinyl transferase inhibition | Q9F4F7 | 310,000 tested, 3.5% active | Potency, µM, for the others: max response, negative = inhibition, hits mostly inhibitors | Biochemical Sfp PPTase activity, qHTS; active means well fitted inhibition curve with a large enough effect; inconclusive means small, poorly fitted or top-dose-only effect, or another doubt; inactive means no such curve, though single readings can be large or run the other way;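 further: the enzyme is Sfp with the accession as filed and its product quenches rhodamine fluorescence; potency means the concentration at half of the fitted maximal effect; 0% = enzyme reaction without inhibitor and -100% = no enzyme wells; top concentration of the series not given in the record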
#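 Buffer: 50 mM Hepes-Na pH 7.6, 10 mM MgCl2, 0.01% Nonidet P-40, 0.01% BSA. Enzyme 15 nM, pre-exposed to compound 15 min; substrates then added and fluorescence change tracked over 30 min.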
# Menin MLL FP FL – menin-MLL binding inhibition, fluorescein peptide | Fluorescence polarization, fluorescein-MLL peptide displacement from menin | FP activity change, % at 61.4 µM | 290,000 tested, under 10 active; inconclusive = falling polarisation curve, or a change in total fluorescence; inactive = total fluorescence flat and polarisation flat or rising; no compound was filed as active; the % refers to the polarisation; negative = inhibition;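 further: % of control where 0% means no effect; inhibitors lower the polarisation; unlabelled MLL peptide was the positive control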
# Numbers without * were called inactive; ? = inconclusive; / = no result given; [ ] = remark or other dose. No enrichment for hits; any-hit rate near 4.4%.
SMILES,TRPML1 ag,TRPV1 potentiator,PINK1 expr mod,ClpP mod,TRPML1 blocker,Sfp PPTase inh,Menin MLL FP FL
Cc1ccc2[nH]c3c(=O)n(CC(=O)N4CC(C)CC(C)C4)ncc3c2c1 (stereo not given),-1.5,?,2.6%,3.7%,17,-5%,-2.8
Cc1cc(C)n2c(SCC(=O)NC3CCCC(C)C3C)nnc2n1 (stereo not given),-0.2,0,1.5%,/,-1,2%,-0.6
CCOC(=O)c1c(NC(=O)c2ccccc2C(=O)O)sc2c1CCCC2,4.5,21,-1.4%,-0.5%,-18,13%,-1.1
Cc1nc2ccccc2nc1NS(=O)(=O)c1ccc(N)cc1,1.3,5,-0.5%,/,-7,-19%,6.8
C=C(C)c1cccc(C(C)(C)NC(=O)Nn2cnnc2)c1,-0.6,-10,3.7%[38.3 µM],-0.3%,-4,8%,2.3
CCN(CC)/C(=N\S(=O)(=O)c1ccc(F)cc1)c1ccccc1,-0.6,6,-0.4%,-1.7%,-7,19%,1.3
CC1=C(C(=O)OCCc2ccccc2)C(c2ccsc2)NC(=O)N1C (stereo not given),2.6,-8,1.1%,1.2%,-5,5%,0.5
COC(=O)c1c(C)cc(C)n2c1nc1ccccc12,0.4,27,-2.4%,?,25,-2%,1.1
COc1ccccc1/C=C/C(=O)OCC(=O)Nc1nnc(-c2ccccc2)o1,1.9,?,-2.8%,?,3,/,/
CCc1sc(Nc2cccc(C)c2C)nc1-c1cc2cccc(OC)c2oc1=O,0.1,/,0.2%,-1.9%,-12,/,/
O=C(Nc1ccccn1)C1CCN(S(=O)(=O)c2ccccc2)CC1,1.4,-4,0.3%,1.9%,-8,/,/
CCOc1ccc(-c2ccc(NS(=O)(=O)c3ccc([N+](=O)[O-])cc3)cc2)nn1,-0.8,6,-0.4%,-0.7%,-8,11%,0.1
O=C(Nc1cccc(F)c1)N1CCN(C(=O)c2ccco2)CC1,-0.6,3,-0.5%,2.4%,-4,11%,/
O=C1C=C(NCC2CCCO2)C2(CCCCC2)O1 (stereo not given),0.8,5,?,0.4%,7,11%,2.3
CCOC(=O)C1(CCOC)CCN(C(=O)c2ccc(CSC)o2)CC1,0.0,-17,-0.4%,-1.0%,2,6%,/
CCCCCCCCCCCNC(=O)c1ccoc1C,0.3,-20,2.1%,-1.1%,-13,13%,5.8
COc1ccc(CNC(=O)COC(=O)CCN2C(=O)C3CC=CCC3C2=O)cc1OC (stereo not given),-0.3,-25,1.4%,-0.2%,-1,/,/
Cc1ccc(-c2ccnc3cc(C)nn23)cc1,-0.2,15,1.7%,-3.9%,-8,0%,?
CCOC(=O)c1[nH]c(C)c(C(=O)N(C)C)c1C,0.5,-3,1.8%[38.3 µM],-1.5%,-14,21%,0.0
O=C(CCN1C(=O)/C(=C\c2ccccc2)SC1=S)NNC(=O)c1cccnc1,-0.4,-2,3.9%,/,2,0%,0.8
CCOC(=O)c1cc(-c2ccc(F)cc2)n(CC(=O)NCc2cccnc2)c1C,0.8,14,4.0%,-0.1%,2,-10%,0.5
COc1ccc(NC(=O)Nc2c(C)n(C)n(-c3ccccc3)c2=O)cc1,-0.8,-8,3.4%,-0.3%,-2,30%,0.1
COc1ccc(OC)c(CCNC(=O)c2cc3c(=O)oc4ccc(C)cc4c3s2)c1,-0.8,/,1.3%,0.0%,13,/,/
CCCn1c(=S)[nH]c2cc(C(=O)N3CCN(c4ccc(F)cc4)CC3)ccc2c1=O,0.1,/,1.0%,2.0%,-13,/,/
COc1ccc2oc(-c3ccc(C)c(NC(=O)c4ccc(-c5ccccc5[N+](=O)[O-])o4)c3)nc2c1,-0.4,/,3.5%,-4.9%,-5,/,/
CCOc1ccccc1/C=C/C(=O)c1ccc(Cl)cc1,0.7,6,-1.4%,3.4%,-4,-5%,1.5
CSCC[C@H](NC(=O)[C@@H]1CSC2c3ccccc3C(=O)N21)C(=O)NCc1ccco1 (stereo not given in full),-1.5,9,-0.1%,-1.0%,6,-9%,/
CC(=O)OCC1CC(COC(C)=O)C(COC(C)=O)CC1COC(C)=O (stereo not given),0.2,/,-1.6%,1.1%,38,/,/
Cc1cc2c3c(ccc(C)c3n1)N=CN2c1ccccc1,1.1,0,1.6%,?,7,10%,-2.6
COCCCNC(=O)/C(C#N)=C/c1cccc(NC(=O)c2ccccc2Cl)c1,0.0,-14,?,-12%,-7,21%,-0.4
CCOc1ccc(NC(=S)N(CCOC)C(C)c2cccnc2)cc1 (stereo not given),0.7,7,1.8%,/,-1,3%,1.4
CCC1C(=O)N=C(SCC(=O)Nc2ccc(S(N)(=O)=O)cc2)NC1=O (stereo not given),1.1,?,1.8%,/,3,10%,0.8
COc1ccc2ccccc2c1C(=O)/C=C\c1ccoc1,0.4,4,-2.0%,1.3%,-5,7.9µM*,14
O=C(NCc1ccccc1)C(c1ccccc1F)N(C(=O)c1csnn1)C1CCCC1 (stereo not given),1.2,-6,0.6%,/,4,12%,-4.6
Cc1ccc(S(=O)(=O)N(C)C)cc1NC(=O)c1ccccc1SCC(=O)N1CCCC1,-1.1,?,1.4%,-1.8%,3,/,/
CCCN(CCC)CCNC(=O)C1CCN(c2nc3ccc(CC)cc3s2)CC1,0.6,/,-0.1%,-3.5%,14,/,/
Cc1ccc(C(=O)C2OC(=O)C(C)(C)C(=O)C2(C)C)cc1 (stereo not given),-1.1,-3,-1.1%,-1.6%,0,11%,7.1
O=[N+]([O-])c1cccc(/C=N/n2cnnc2)c1,0.7,10,-0.5%,/,18,4%,0.2
CCOC(=O)C1(C)CCCN(C(=O)c2cc(OC)c(OC)c(OC)c2)C1 (stereo not given),0.5,/,1.6%,-0.1%,-5,/,/
Cc1ccc(/C=N/NC(=S)NC(C)C)o1,1.5,1,2.0%,-3.3%,15,1%,0.8
CC1CN2C(c3ccc([N+](=O)[O-])cc3)=CSC2=N1 (stereo not given),0.1,0,0.2%,-0.1%,-9,50µM*,-5.8
Cc1cc2ccccc2cc1CN1CCCCC1,/,10,-0.4%,1.6%,/,21%,-2.4
COc1ccc(-c2ccc3c(c2)C2CC3CCN2C(=O)OCc2ccccc2)cc1 (stereo not given),2.4,/,6.8%,-7.0%,-14,/,/
COc1ccc([N+](=O)[O-])c2c(=O)ccoc12,0.1,-5,1.4%,-1.3%,0,16%,3.5
CCCCNC(=O)OCC(CC)NC(=O)OC(C)C (stereo not given),-0.1,-5,2.0%,28µM*,0,5%,3.9
Nc1cc(=O)[nH]c(SCC(=O)N2N=C(c3ccc(Cl)cc3)CC2c2ccco2)n1 (stereo not given),-0.4,-2,1.3%,/,9,1%,4.7
COC(=O)c1nc2nc(C)cc(=O)n2[nH]1,-1.0,-6,4.3%,5.6%,11,-1%,-0.3
CC(C)CNc1cc(=O)n(C)c(=O)n1C,3.6,-9,-1.4%,-10%,-12,9%,3.1
COc1cc(C(=O)Nc2cccc(-c3nc4ccccc4o3)c2C)cc(OC)c1OC,-1.7,-18,?,-3.5%,7,5%,0.5
NC(c1ccc(F)c(F)c1)c1nc(-c2cc(F)cc(F)c2)cs1 (stereo not given),-0.7,/,8.4%,1.4%,7,/,/
Cc1nc2cc(-c3cccc(F)c3)nn2c(C)c1CCC(=O)NC(C)c1ccc2c(c1)OCCO2 (stereo not given),0.1,4,2.5%,5.5%,-5,16%,2.8
O=C(COc1ccccc1Cl)NCC(c1cccs1)N1CCOCC1 (stereo not given),-0.3,-16,1.3%,/,-17,/,/
COc1ccc(S(=O)(=O)Nc2ccccc2C(=O)NCc2ccco2)cc1Br,0.2,-3,-3.1%,?,9,-18%,4.0
S=C(NCc1ccncc1)NC1CCCC1,0.6,-5,-0.7%,/,8,6%,-3.5
COc1ccc(Cn2c(CCC(=O)N3CCN(c4ccccn4)CC3)nc3ncccc3c2=O)cc1,-0.9,?,-1.1%,-27%,-8,4%,6.7
O=c1[nH]c2ccccc2c(=O)n1Cc1ccco1,-0.2,-5,2.8%,-7.5%,52,-1%,6.1
c1ccc(-c2noc(CC3CCCCC3)n2)nc1,1.7,-25,3.9%,2.3%,3,-8%,-0.9
COc1ccc(NC(=O)CCSc2nc(-c3ccco3)cc(C(F)(F)F)n2)cc1,1.7,/,9.7%,14%,-12,/,/
CCOC(=O)c1cnc2ccc(OC)cc2c1Nc1ccc(N2CCN(C)CC2)cc1,3.1,-2,3.7%,/,-4,-8%,/
COc1cc(NC(=O)C2CCCN2C(=O)C2CCC(C)CC2)cc(OC)c1OC (stereo not given),1.2,18,-3.1%,-0.5%,-7,9%,3.3

# (more compounds)
SMILES,TRPML1 ag,TRPV1 potentiator,PINK1 expr mod,ClpP mod,TRPML1 blocker,Sfp PPTase inh,Menin MLL FP FL
CC(C)(C)c1ccc(-c2nnc(SCC(=O)NC3CC3)o2)cc1,0.6,-6,1.6%,-2.1%,3,/,/
CC(=O)Nc1cc(-c2cccc(F)c2)cn2c(-c3ccc(F)c(Cl)c3)cnc12,-0.8,/,1.0%,?,/,/,/
O=C(Nc1cc(F)ccc1F)c1ccc(-n2cncn2)c([N+](=O)[O-])c1,0.2,-13,-4.1%,/,15,/,/
O=C(NC1CCCCC1)c1ccccc1NC(=O)C1CC(=O)N(c2ccc(Cl)cc2)C1 (stereo not given),0.3,-15,4.8%[38.3 µM],-6.8%,-1,11%,-0.5
Cc1ccc(CNC(=O)COC(=O)c2cc(=O)[nH]c3ccccc23)cc1,3.1,/,3.1%,-6.4%,-20,/,/
COc1ccccc1NC(=O)Nc1ccccc1Br,4.3,0,-1.1%,3.2%,-5,10%,0.3
CCC(OC(=O)CNS(=O)(=O)c1ccccc1)C(=O)c1ccccc1 (stereo not given),1.2,15,3.7%,/,19,10%,1.7
CCCCN(C)C(=O)CSc1c2c(nc3ccc(Cl)cc13)CCCC2,-0.6,/,0.6%,-0.2%,-8,/,/

# Compound profiles, as listed above:
# CCOc1ccc(-c2ccc(NS(=O)(=O)c3ccc([N+](=O)[O-])cc3)cc2)nn1 as listed: TRPML1 ag: -0.8; TRPV1 potentiator: 6; PINK1 expr mod: -0.4%; ClpP mod: -0.7%; TRPML1 blocker: -8; Sfp PPTase inh: 11%; Menin MLL FP FL: 0.1
# COC(=O)c1c(C)cc(C)n2c1nc1ccccc12 as listed: TRPML1 ag: 0.4; TRPV1 potentiator: 27; PINK1 expr mod: -2.4%; ClpP mod: ?; TRPML1 blocker: 25; Sfp PPTase inh: -2%; Menin MLL FP FL: 1.1

# Screening data deposited in PubChem by National Center for Advancing Translational Sciences (NCATS).
